# A1 apoptosis 2 – A1 inhibition read as caspase activation. 24,000 tested, under 10 active. AID 2465. MEF A1-2A-BIM cells, caspase-Glo luminescence, 3 h; percent of clofoctol response, DMSO zero. caspase activation, % (no concentration beside the values); in the data active = caspase activation above about 5.9%;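 also: wells of about 30 µL received 50 nL stock; the first replicate is given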
#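 system = A1-2A-BIM-expressing MEF cells | quantity = 2500 MEF cells/well | dosing = 50 nL compound per well, pinned | schedule = overnight cell settling, then 3 h compound exposure, 37 °C | signal = luminescence from DEVD-luciferin Caspase-Glo reagent, 1:1 in 50 mM HEPES, 1 h RT | read-out = Caspase-3/7 activation, seen as rise in luminescence signal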
# Starred values were filed as active, the others as inactive. Some of the compounds tested; rates above refer to the full screens.
SMILES,A1 apoptosis 2
COc1ccc(CN(C)C[C@@H]2Oc3c(NC(=O)Nc4cccc5ccccc45)cccc3C(=O)N([C@@H](C)CO)C[C@@H]2C)cc1,-2.0
C[C@@H]1CN([C@@H](C)CO)C(=O)Cc2cc(N(C)C)ccc2O[C@@H]1CN(C)Cc1ccccc1,-0.8
O=C(N/N=C/c1ccc[nH]1)c1ccccn1,-2.0
C[C@H]1CN([C@@H](C)CO)C(=O)c2cc(NC(=O)Nc3ccc4c(c3)OCO4)ccc2O[C@H]1CN(C)S(=O)(=O)c1cn(C)cn1,0.0
C[C@@H]1CCCCO[C@@H](CN(C)CC2CCCCC2)[C@@H](C)CN([C@@H](C)CO)C(=O)c2cc(NC(=O)Nc3ccccc3)ccc2O1,-1.8
C[C@H]1CCCCO[C@@H](CN(C)S(=O)(=O)c2ccc(F)cc2)[C@@H](C)CN([C@@H](C)CO)C(=O)c2cc(NS(=O)(=O)c3ccc(F)cc3)ccc2O1,-0.5
C[C@@H]1CCCCO[C@@H](CN(C)Cc2ccc3c(c2)OCO3)[C@@H](C)CN([C@H](C)CO)C(=O)c2cc(NS(=O)(=O)c3ccccc3)ccc2O1,-0.4
O=C(C1=C[C@H](c2ccc3c(c2)Cc2ccccc2-3)C[C@H](OCCCCO)O1)N1CCCCC1,-0.3
COc1ccc(NC(=O)N(C)C[C@H]2Oc3c(NC(=O)Nc4c(C)noc4C)cccc3C(=O)N([C@@H](C)CO)C[C@H]2C)cc1,1.0
COc1cc(/C=N/NC(=O)c2ccccn2)c([N+](=O)[O-])cc1OC,-0.7
C[C@H]1CN([C@@H](C)CO)C(=O)CCCn2cc(nn2)CO[C@H]1CN(C)CC1CCCCC1,0.1
COCCOC(=O)N1C(=O)[C@@]2(c3cc(C#CC4(O)CCCCCC4)ccc31)[C@H](C(N)=O)[C@H]1C(=O)O[C@H](c3ccccc3)[C@H](c3ccccc3)N1[C@@H]2c1ccc(OCCO)cc1,-1.1
Cc1ccc(S(=O)(=O)Nc2ccc3c(c2)C(=O)N([C@@H](C)CO)C[C@@H](C)[C@H](CN(C)Cc2ccc(C(F)(F)F)cc2)OCCCC[C@H](C)O3)cc1,-1.4
Cc1noc(C)c1NC(=O)N(C)C[C@@H]1OCCCC[C@@H](C)Oc2ccc(NC(=O)Nc3ccc4c(c3)OCO4)cc2C(=O)N([C@H](C)CO)C[C@@H]1C,0.2
CC(C)NC(=O)N(C)C[C@@H]1Oc2ccc(NC(=O)C3CCCCC3)cc2C(=O)N([C@@H](C)CO)C[C@@H]1C,0.4
C[C@@H]1CN([C@H](C)CO)C(=O)Cc2cc(NC(=O)Cc3cn(C)c4ccccc34)ccc2O[C@H]1CN(C)S(=O)(=O)c1ccc(F)cc1,-1.2
C[C@H](CO)N1C[C@H](C)[C@H](CN(C)S(=O)(=O)c2ccccc2)Oc2ccc(NS(=O)(=O)c3ccccc3)cc2CC1=O,-0.4
C[C@@H]1CN([C@H](C)CO)C(=O)c2cc(NS(=O)(=O)c3ccccc3)ccc2O[C@@H](C)CCCCO[C@H]1CN(C)C(=O)C1CCCCC1,0.2
C[C@@H]1CCCCO[C@@H](CN(C)C(=O)Nc2ccc3c(c2)OCO3)[C@@H](C)CN([C@@H](C)CO)C(=O)c2cc(NC(=O)C3CCCCC3)ccc2O1,-1.3
C[C@H]1CCCCO[C@H](CN(C)Cc2ccc(C(F)(F)F)cc2)[C@@H](C)CN([C@@H](C)CO)C(=O)c2cc(NC(=O)Nc3ccc(C(F)(F)F)cc3)ccc2O1,0.0
O=C(CCCCCC(=O)Nc1ccccc1O)N/N=C/c1ccc(Br)o1,0.5
C[C@H](CO)N1C[C@H](C)[C@H](CN(C)S(=O)(=O)c2cccs2)Oc2ccc(NC(=O)Nc3ccccc3)cc2C1=O,0.4
COc1ccc(S(=O)(=O)Nc2ccc3c(c2)C(=O)N([C@H](C)CO)C[C@@H](C)[C@H](CN(C)C(=O)Nc2ccc(F)cc2)OCCCC[C@@H](C)O3)cc1,-2.4
C[C@H]1CN([C@@H](C)CO)C(=O)Cc2cc(NC(=O)Nc3ccc(F)cc3)ccc2O[C@@H]1CN(C)Cc1ccc(C(=O)O)cc1,0.3
C[C@@H]1CCCCO[C@@H](CN(C)S(=O)(=O)c2ccc(Cl)cc2)[C@H](C)CN([C@@H](C)CO)C(=O)c2cc(NC(=O)Nc3ccccc3)ccc2O1,0.3
CNC[C@H]1OCCCC[C@@H](C)Oc2ccc(NS(=O)(=O)c3cn(C)cn3)cc2C(=O)N([C@@H](C)CO)C[C@@H]1C,-0.2
C[C@@H]1CN([C@@H](C)CO)C(=O)CCCn2nncc2CO[C@H]1CN(C)Cc1ccc2c(c1)OCCN2C,-1.7
C[C@H](CO)N1C[C@H](C)[C@@H](CN(C)S(C)(=O)=O)Oc2c(NC(=O)c3cnccn3)cccc2C1=O,-1.0
C[C@H]1CN([C@@H](C)CO)C(=O)Cc2cc(NC(=O)Nc3ccccc3)ccc2O[C@H]1CN(C)C(=O)NC1CCCCC1,2.3
C[C@@H]1CN([C@H](C)CO)C(=O)Cc2cc(NC(=O)CCN3CCOCC3)ccc2O[C@@H]1CN(C)S(=O)(=O)c1cn(C)cn1,0.1
C[C@H](CO)N1C[C@H](C)[C@H](CN(C)S(=O)(=O)c2ccc(Cl)cc2)OCCCC[C@H](C)Oc2ccc(NS(C)(=O)=O)cc2C1=O,-0.1
COc1ccc(S(=O)(=O)N(C)C[C@H]2Oc3c(NS(=O)(=O)c4c(C)noc4C)cccc3C(=O)N([C@H](C)CO)C[C@H]2C)cc1,-1.0
C[C@@H]1CN([C@H](C)CO)C(=O)Cc2cc(NS(=O)(=O)c3cn(C)cn3)ccc2O[C@@H]1CN(C)Cc1ccc(Cl)c(Cl)c1,-0.7
CC(C)NC(=O)N(C)C[C@@H]1Oc2ccc(NC(=O)C3CC3)cc2C(=O)N([C@@H](C)CO)C[C@H]1C,0.7
COc1ccc(NC(=O)N(C)C[C@H]2Oc3c(NC(=O)Nc4ccc5c(c4)OCO5)cccc3C(=O)N([C@H](C)CO)C[C@H]2C)cc1,-0.3
C[C@@H]1CCCCO[C@@H](CN(C)C(=O)Nc2ccccc2)[C@H](C)CN([C@H](C)CO)C(=O)c2cc(NC(=O)Nc3cccc4ccccc34)ccc2O1,-0.1
Cc1noc(C)c1NC(=O)N(C)C[C@H]1OCCCC[C@H](C)Oc2ccc(NC(=O)Nc3ccc(F)cc3)cc2C(=O)N([C@@H](C)CO)C[C@@H]1C,-1.1
C[C@@H]1CN([C@H](C)CO)C(=O)CCCn2nncc2CO[C@@H]1CN(C)Cc1ccc(Oc2ccccc2)cc1,0.7
C[C@H]1CN([C@@H](C)CO)C(=O)c2cc(NS(=O)(=O)c3cccs3)ccc2O[C@H]1CN(C)C,1.2
C[C@@H]1CCCCO[C@H](CN(C)S(=O)(=O)c2cccs2)[C@@H](C)CN([C@@H](C)CO)C(=O)c2cc(NS(=O)(=O)c3cccs3)ccc2O1,-0.7
Cc1ccc(S(=O)(=O)Nc2ccc3c(c2)CC(=O)N([C@@H](C)CO)C[C@H](C)[C@@H](CN(C)S(=O)(=O)c2cccs2)O3)cc1,0.4
C[C@H]1CN([C@@H](C)CO)C(=O)Cc2cc(NC(=O)C3CC3)ccc2O[C@@H]1CN(C)S(=O)(=O)c1ccc(Cl)cc1,0.0
Cc1noc(C)c1S(=O)(=O)N(C)C[C@H]1OCCCC[C@@H](C)Oc2ccc(NC(=O)NC(C)C)cc2C(=O)N([C@@H](C)CO)C[C@H]1C,-2.2
C[C@@H]1CN([C@@H](C)CO)C(=O)c2cc(NS(C)(=O)=O)ccc2O[C@@H](C)CCCCO[C@@H]1CN(C)S(=O)(=O)c1ccc(Cl)cc1,-1.2
Cc1noc(C)c1NC(=O)N(C)C[C@@H]1Oc2c(NC(=O)c3ccc(-c4nccs4)cc3)cccc2C(=O)N([C@H](C)CO)C[C@@H]1C,-1.4
Cc1noc(C)c1S(=O)(=O)Nc1ccc2c(c1)CC(=O)N([C@H](C)CO)C[C@@H](C)[C@H](CN(C)Cc1ccc(C(=O)Nc3ccccc3N)cc1)O2,-0.5
Cc1noc(C)c1NC(=O)N(C)C[C@@H]1Oc2ccc(NC(=O)Nc3ccc4c(c3)OCO4)cc2CC(=O)N([C@H](C)CO)C[C@@H]1C,0.3
CN1CCN(C(=O)C2=C[C@H](C3CC3)C[C@H](OCc3ccc(CO)cc3)O2)CC1,0.6
C[C@H]1CCCCO[C@@H](CN(C)Cc2ccncc2)[C@@H](C)CN([C@@H](C)CO)C(=O)c2cc(NS(C)(=O)=O)ccc2O1,-0.7
Cc1c(NC(=O)CC#N)c(=O)n(-c2ccccc2)n1C,0.7

# Other entries:
SMILES,A1 apoptosis 2
Cc1noc(C)c1NC(=O)N(C)C[C@H]1Oc2ccc(NC(=O)Nc3ccc4c(c3)OCO4)cc2C(=O)N([C@H](C)CO)C[C@H]1C,-0.1
O=C1O[C@H](c2ccccc2)[C@H](c2ccccc2)N2[C@H]1[C@@H](C(=O)N1CCCCCCC1)[C@]1(C(=O)Nc3ccc(C#CC4=CCCCC4)cc31)[C@H]2c1ccccc1OCCO,-0.2
Cc1noc(C)c1S(=O)(=O)N(C)C[C@@H]1OCCCC[C@H](C)Oc2ccc(NS(C)(=O)=O)cc2C(=O)N([C@@H](C)CO)C[C@H]1C,0.1
C[C@@H]1CCCCO[C@H](CN(C)S(=O)(=O)c2ccccc2)[C@H](C)CN([C@H](C)CO)C(=O)c2cc(NC(=O)Nc3ccccc3)ccc2O1,0.8
C[C@H]1CN([C@@H](C)CO)C(=O)c2cccc(NC(=O)Nc3ccc(F)cc3)c2O[C@@H]1CN(C)S(=O)(=O)c1ccccc1,0.3
C[C@@H]1CCCCO[C@@H](CN(C)Cc2ccc(C(=O)O)cc2)[C@@H](C)CN([C@H](C)CO)C(=O)c2cc(NC(=O)C3CCCCC3)ccc2O1,0.3
C[C@@H]1CCCCO[C@@H](CN(C)S(C)(=O)=O)[C@@H](C)CN([C@H](C)CO)C(=O)c2cc(NC(=O)Nc3ccc(C(F)(F)F)cc3)ccc2O1,0.4
C[C@@H]1CN([C@@H](C)CO)C(=O)c2cc(NC(=O)Cc3cn(C)c4ccccc34)ccc2O[C@H]1CN(C)Cc1ccc(C(F)(F)F)cc1,-1.7
Cc1ccc(S(=O)(=O)Nc2ccc3c(c2)CC(=O)N([C@H](C)CO)C[C@@H](C)[C@@H](CN(C)S(=O)(=O)c2cn(C)cn2)O3)cc1,0.8
COc1ccc(CN(C)C[C@H]2Oc3ccc(NC(=O)Nc4cccc5ccccc45)cc3C(=O)N([C@H](C)CO)C[C@@H]2C)cc1,1.8
C[C@H]1CN([C@@H](C)CO)C(=O)c2cccc(NC(=O)NC3CCCCC3)c2O[C@H]1CN(C)C(=O)Nc1ccc(F)cc1,1.3
CNC[C@H]1Oc2c(NC(=O)Nc3ccc4c(c3)OCO4)cccc2C(=O)N([C@@H](C)CO)C[C@H]1C,0.7
C[C@H]1CN([C@@H](C)CO)C(=O)c2cccc(NC(=O)Nc3ccccc3)c2O[C@@H]1CN(C)Cc1ccc(Cl)c(Cl)c1,-0.8
C[C@@H]1CN([C@@H](C)CO)C(=O)c2cccc(NC(=O)C3CCOCC3)c2O[C@@H]1CN(C)S(=O)(=O)c1cccs1,-0.8
C[C@@H]1CN([C@@H](C)CO)C(=O)c2cc(NC(=O)Cn3cnnn3)ccc2O[C@H]1CN(C)S(=O)(=O)c1ccccc1,-0.9
Cc1cc(C(=O)Nc2cccc3c2O[C@@H](CN(C)C(=O)Nc2ccc(F)cc2)[C@H](C)CN([C@H](C)CO)C3=O)n(C)n1,0.7
C[C@H]1CN([C@@H](C)CO)C(=O)Cc2cc(NS(=O)(=O)c3ccc(F)cc3)ccc2O[C@@H]1CN(C)S(=O)(=O)c1ccc(Cl)cc1,0.8
C[C@H]1CN([C@@H](C)CO)C(=O)Cc2cc(NC(=O)Nc3cccc4ccccc34)ccc2O[C@H]1CN(C)CC1CC1,-0.1
COc1ccc(CN(C)C[C@H]2Oc3ccc(NS(=O)(=O)c4ccc(F)cc4)cc3CC(=O)N([C@@H](C)CO)C[C@@H]2C)cc1,-1.0
COc1ccc(CN(C)C[C@H]2OCCCC[C@H](C)Oc3ccc(NS(=O)(=O)c4cn(C)cn4)cc3C(=O)N([C@@H](C)CO)C[C@H]2C)cc1,0.7

# Entries from the list above with a Cl atom:
SMILES,A1 apoptosis 2
C[C@@H]1CCCCO[C@@H](CN(C)S(=O)(=O)c2ccc(Cl)cc2)[C@H](C)CN([C@@H](C)CO)C(=O)c2cc(NC(=O)Nc3ccccc3)ccc2O1,0.3
C[C@H](CO)N1C[C@H](C)[C@H](CN(C)S(=O)(=O)c2ccc(Cl)cc2)OCCCC[C@H](C)Oc2ccc(NS(C)(=O)=O)cc2C1=O,-0.1
C[C@@H]1CN([C@H](C)CO)C(=O)Cc2cc(NS(=O)(=O)c3cn(C)cn3)ccc2O[C@@H]1CN(C)Cc1ccc(Cl)c(Cl)c1,-0.7
C[C@H]1CN([C@@H](C)CO)C(=O)Cc2cc(NC(=O)C3CC3)ccc2O[C@@H]1CN(C)S(=O)(=O)c1ccc(Cl)cc1,0.0
C[C@@H]1CN([C@@H](C)CO)C(=O)c2cc(NS(C)(=O)=O)ccc2O[C@@H](C)CCCCO[C@@H]1CN(C)S(=O)(=O)c1ccc(Cl)cc1,-1.2
C[C@H]1CN([C@@H](C)CO)C(=O)c2cccc(NC(=O)Nc3ccccc3)c2O[C@@H]1CN(C)Cc1ccc(Cl)c(Cl)c1,-0.8
C[C@H]1CN([C@@H](C)CO)C(=O)Cc2cc(NS(=O)(=O)c3ccc(F)cc3)ccc2O[C@@H]1CN(C)S(=O)(=O)c1ccc(Cl)cc1,0.8
